LASV entry inh: qHTS for Inhibitors of binding or entry into cells for Lassa Virus; Lassa virus pseudotype entry inhibition, cell reporter; control for the full effect not named in the record; Potency, µM (titrated, usually from 37.9 µM), inactives show top-dose activity change, negative = inhibition, most hits filed as inhibitors; 300,000 compounds, 1.2% hits; AID 540256, 2011; active means well fitted inhibition curve with a large enough effect; inconclusive means small, poorly fitted or top-dose-only effect, or effect the other way; inactive means flat fitted curve, though single readings scatter; tested in HEK293 cells; also: % is scaled to controls: 0 for no effect and ±100 for the full control effect; nearly all actives have a fitted effect of over 50% in size; luciferase read-out
Cruzain inh Det: qHTS Assay for Promiscuous and Specific Inhibitors of Cruzain (with detergent); Potency, µM, without a hit: max response, negative = inhibition, hits mostly inhibitors; purified cruzain, Z-FR-AMC fluorescence, 0.01% Triton; Cruzipain (Trypanosoma cruzi), P25779; 200,000 compounds, 0.43% hits;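 also: plate controls were neutral wells for no effect and buffer without enzyme for full effect; nearly all actives have a fitted effect of over 40% in size; top concentration of the series not given in the record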
Target sequence (P25779 123-467 limits assumed): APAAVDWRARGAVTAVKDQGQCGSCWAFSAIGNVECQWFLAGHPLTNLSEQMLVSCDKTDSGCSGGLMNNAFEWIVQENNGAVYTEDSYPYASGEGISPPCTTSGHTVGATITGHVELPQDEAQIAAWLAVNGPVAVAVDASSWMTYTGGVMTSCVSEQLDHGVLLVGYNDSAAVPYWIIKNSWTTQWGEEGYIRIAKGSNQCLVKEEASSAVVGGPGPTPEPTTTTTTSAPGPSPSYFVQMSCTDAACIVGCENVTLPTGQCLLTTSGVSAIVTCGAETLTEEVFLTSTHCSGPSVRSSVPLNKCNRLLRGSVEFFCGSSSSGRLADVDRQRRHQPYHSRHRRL
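Enzyme 1.5 nM, Z-FR-AMC 2 uM, NaOAc 100 mM pH 5.5, DTT 5 mM, Triton X-100 0.01%; 15 min RT compound preincubation; kinetic ex360/em450, 60 s delta.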
Cruzain noTriton: qHTS Assay for Promiscuous and Specific Inhibitors of Cruzain (without detergent); Cruzipain (Trypanosoma cruzi), P25779; purified cruzain, Z-FR-AMC fluorescence, no detergent; Potency, µM, for inactives: max response, negative = inhibition, actives largely listed as inhibitors; 200,000 compounds, 2.3% hits; AID 1476, 2009;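 also: plate controls were enzyme without inhibitor for no effect and buffer without enzyme for full effect; nearly all actives have a fitted effect of over 40% in size; top concentration of the series not given in the record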
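Detergent-free condition (0.00005% Triton X-100) in acetate buffer pH 5.5 with DTT. 1.5 nM enzyme and compound were pre-mixed 15 min, then 2 uM Z-FR-AMC substrate added; reaction progress from fluorescence change between first and third reads (60 s).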
Marburg entry inh: qHTS for inhibitors of binding or entry into cells for Marburg Virus; Marburg virus pseudotyped entry inhibition, cell reporter; control for the full effect not named in the record; about a third of the inactives were read at about 46 µM; Potency, µM (series often up to 37.8 µM), for inactives: at the highest dose activity change, negative = inhibition, actives largely listed as inhibitors; 300,000 compounds, 1.8% hits; AID 540276, 2011; active = well fitted inhibition curve with a large enough effect; inconclusive = small, poorly fitted or top-dose-only effect, or effect the other way; inactive = flat fitted curve, though single readings scatter; tested in HEK293 cells; about a fifth of its hits are not listed in these tables; also: % is scaled to controls: 0 for no effect and ±100 for the full control effect; luciferase read-out
SARS PLP yeast: qHTS of Yeast-based Assay for SARS-CoV PLP. 330,000 compounds, 0.19% hits. Potency, µM (highest dose often 32.9 µM), for the others: at the top dose activity, positive = growth rescue. S. cerevisiae expressing SARS-CoV PLpro, growth rescue; control for the full effect not named in the record. AID 485353, 2010; active means well fitted rising curve with a large enough effect; inconclusive means small, poorly fitted or top-dose-only effect; inactive means no such curve, though single readings can be large or run the other way; also: 0% is about no effect; nearly all actives have a fitted effect of over 55% in size; growth read by luminescence after 48 h
NS1 function inh: qHTS Assay for Inhibitors of Influenza NS1 Protein Function | S. cerevisiae slowed by influenza A NS1, growth recovery by OD600 | Potency, µM (highest dose often 46.1 µM), inactives show top-dose activity, positive = more growth | 270,000 compounds, 0.4% hits; active means well fitted rising curve with a large enough effect; inconclusive means small, poorly fitted or top-dose-only effect; inactive means no such curve, though single readings can be large or run the other way; also: nearly all actives have a fitted effect of over 50% in size
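Read-out: OD600 growth recovery of NS1-expressing budding yeast. Cells grown overnight at 30C in -URA glucose medium, washed, resuspended and diluted 1:100 in 2% galactose assay medium, pH 6.0. Same strain lacking NS1 served as positive control.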
StopGo reporter: High Throughput Screening for Foot and Mouth Disease Virus Antivirals | Potency, µM (doses to about 57.9 µM), without a hit: at the top dose signal change, negative = less light | AID 1159524, 2015 | human cells with a luciferase reporter of 2A StopGo recoding; control for the full effect not named in the record | 410,000 compounds, 1.2% hits; active = well fitted falling curve with a large enough effect; inconclusive = small, poorly fitted or top-dose-only effect; inactive = no such curve, though single readings can be large or run the other way; tested in HEK293T cells; also: % is scaled to controls: 0 for no effect and ±100 for the full control effect; nearly all actives have a fitted effect of over 45% in size; luciferase light after 4 h
RE007 growth inh: qHTS Assay for Inhibitors of the HIV-1 protein Vpr; S. pombe RE007 Vpr strain, BacTiter-Glo ATP luminescence, 24 h; control for the full effect not named in the record; Potency, µM (titrated, usually from 92.2 µM), for inactives: top-dose activity change, negative = less growth; 360,000 compounds, 0.21% hits; active = well fitted falling curve with a large enough effect; inconclusive = small, poorly fitted or top-dose-only effect; inactive = no such curve, though single readings can be large or run the other way;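 also: % is scaled to controls: 0 for no effect and ±100 for the full control effect; nearly all actives have a fitted effect of over 50% in size; the assay follows cell death caused by Vpr and the record does not say whether a fall means rescue or toxicity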
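Fission yeast strain RE007, carrying one chromosomally integrated HIV-1 vpr copy, was seeded at OD 0.01 in PMG+AL medium with 23 nL pinned compound. After 24 h at 30 °C and 99% humidity, viability was read by BacTiter-Glo luminescence.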
An asterisk follows results filed as active; ? = inconclusive; nt = not tested or not shown; & = joins results of further samples; [ ] = another dose, or the depositor's remark. Unless noted, calls follow the shape of the dose curve; as a rule, active = well fitted curve in the direction sought with a large enough effect; inconclusive = small, poorly fitted or top-dose-only effect, or another doubt; inactive = no such curve, though single readings can be large; an effect the other way counts as inactive or inconclusive. Potency is read from the fitted curve at half-maximal effect.

Fields – LASV entry inh | Cruzain inh Det | Cruzain noTriton | Marburg entry inh | SARS PLP yeast | NS1 function inh | StopGo reporter | RE007 growth inh
CN(Cc1ccccc1)C(=O)Cn1nc(C(F)(F)F)c2c1CCC2
  -18% | 5.3% | 15% | -7%[46.1 µM] | nt | 5% | -2% | 13%
CCOC(=O)c1c(C)[nH]c(C)c1C(=O)COC(=O)c1cc(OC)cc(OC)c1
  ? | nt | nt | ? | 0% | -4% | -19% | 13%
CC1(c2ccccc2)NC(=O)N(CC(=O)N2CCN(S(=O)(=O)c3ccccc3[N+](=O)[O-])CC2)C1=O (stereo not given)
  ? | nt | nt | 13% | -12% | -11% | -21% | -7%
CC(=O)NC1C(=O)N(C)c2ccc(Br)cc21 (stereo not given)
  -15%[14.3 µM] | 2.3% | -2% | 0% | 29% | 3% | -15% | 0%
COc1ccc2c(c1)c(N1CCCC1=O)c(C(=O)Nc1ccc(OC)c(Cl)c1)n2C
  ? | -11% | ? | nt | nt | nt | ? | nt
NC(=O)CNC(=O)C1CCN(S(=O)(=O)c2ccc(-n3cnnn3)cc2)CC1
  nt | nt | nt | 9%[46.1 µM] | 1% | 6% | 8% | 16%
O=C(NCc1ccco1)c1cc(S(=O)(=O)N2CCOCC2)c(Cl)cc1Cl
  -3% | 4.7% | 1% | ? | -3% | -11% | -27% | -7%
Cc1ccc(S(=O)(=O)NC(=O)NC(C)Cc2ccccc2)cc1 (stereo not given)
  ? | nt | nt | 5%&5%[46.1 µM] | 0% | -2% | 25% | 7%
C/C(=N\NC(=O)COc1ccccc1)c1cccs1
  ? | -2.5% | -3% | 6% | -15% | -7% | 33%[activator] | 10%
O=C(Nc1ccc(F)cc1)c1oc2ccccc2c1NC(=O)C12CC3CC(CC(C3)C1)C2
  21%[46.1 µM] | 0.5% | -3% | 6%[46.1 µM] | nt | nt | 2% | nt
O=C(CNC(=O)C12CC3CC(CC(C3)C1)C2)NCc1ccccc1
  17% | nt | nt | 5% | -8% | nt | -4% | -10%
N#Cc1cc(-c2ccccc2)nnc1Oc1ccccc1
  3% | -1.1% | -1% | ? | 1% | -4% | ? | 2%
CCCN(CC(=O)Nc1ccccc1C)C(=O)c1ccc2c(c1)OCO2
  11% | nt | nt | 6% | -6% | nt | 2% | -10%
COC(=O)c1ccc(C2C(C(=O)c3ccco3)=C(O)C(=O)N2CC2CCCO2)cc1 (stereo not given)
  nt | nt | nt | -9%[46.1 µM] | -2% | 5% | 46%[activator] | 1%
CCOc1cc(C#N)c(NC(=O)CSc2nnnn2-c2ccc(OC)cc2)cc1OCC
  -15% | 2.2% | ? | -5% | 1% | ? | -12% | -15%
C/C(N)=C(/C#N)C(=O)COC(=O)c1ccccc1Oc1ccccc1
  -22% | nt | nt | -7% | 1% | nt | -5% | 9%
Cc1ccccc1-n1c(C)cc(/C=N/NC(=O)c2ccncc2)c1C
  7% | 0.7% | -8% | 17% | -1% | 3% | 58%[activator] | 0%
COCCn1nnnc1C(c1ccccc1)N1CCN(C(=O)c2ccco2)CC1 (stereo not given)
  7% | nt | nt | 5%[46.1 µM] | -2% | -1% | 2% | 7%
COc1ccc(OP(=O)(Nc2ccccc2)Nc2ccccc2)cc1
  -18% | 0.2% | -9% | ? | -2% | -36% | 45%[activator] | 4%
COc1ccccc1OCC(=O)Nc1cc(Cl)ccc1N1CCCCC1
  -8% | nt | nt | ? | 2% | nt | ? | -22%
CCn1c(CSc2n[nH]c(N)n2)nc2cc(C(=O)O)ccc21
  1% | nt | nt | 1%[46.1 µM] | 0% | nt | -4% | -17%
C=CCSC1=N/C(=C\c2ccc(C(=O)O)cc2)C(=O)S1
  -20% | nt | nt | -11%[46.1 µM] | 0% | -2% | 4% | -9%
O=C(COc1ncnc2ccccc12)Nc1cccc([N+](=O)[O-])c1
  22% | nt | nt | -8% | -2% | -1% | 5% | -2%
O=C(CSc1nc(-c2ccncc2)nn1CC(=O)N1CCCCC1)NC1CCCC1
  24% | 7.0% | -1% | 9% | 11% | -2% | -25% | -2%
CN(C)c1ccc(/C=N\NC(=O)c2cccc3cc[nH]c23)cc1
  nt | nt | nt | nt | -2% | -42% | 48%[activator] | 6%
CCCCC(=O)OCC(=O)c1ccc(OCC)cc1
  ? | -6.1% | -6% | 24% | -3% | -2% | 65%[activator] | -11%
CCC(=O)Nc1ccc(-c2cc3ccccc3oc2=O)cc1
  ? | nt | nt | ? | -1% | -1% | 42%[activator] | 15%
Cc1ccc(C)n1-c1ccc(C(=O)Nc2ccccc2F)cc1
  ? | nt | nt | -26%[46.1 µM] | -2% | nt | 30%[activator] | 13%
Cc1cccc(NC(=O)Cn2cnc3c(cnn3-c3ccc(F)cc3)c2=O)c1C
  nt | -3.6% | -9% | nt | -3% | -51% | -17% | 3%
Cc1nn(C)cc1C1C2=C(CC(C)(C)CC2=O)N(c2ccccc2)C2=C1C(=O)CC(C)(C)C2
  9% | 2.6% | ? | -3% | 12% | 5% | -3% | -11%
CS(=O)(=O)Nc1ccc(C(=O)NCC2CCCO2)cc1 (stereo not given)
  1% | 4.9% | -2% | 2% | 5% | 0% | -9% | -16%
COCCn1c(N2CCN(c3ccc(OC)cc3)CC2)nc2c1c(=O)n(C)c(=O)n2C
  ? | 17% | ? | -5% | 1% | -13% | -1% | 8%
CCc1c(SCCC(=O)O)nc2ccccc2c1C
  0% | nt | nt | -14%[46.1 µM] | -2% | -38% | -7% | -5%
O=C(Nc1cccc(S(=O)(=O)N2CCCCC2)c1)Nc1ccc(Cl)cc1Cl
  ? | -8.3% | ? | ? | -7% | -36% | ? | 10%
C[C@@H](C(=O)NCCc1c[nH]c2ccccc12)[C@@H]1C[C@@]1(C)[C@@H](NC(=O)OCc1ccccc1)c1ccccc1
  ? | -7.8%&-4.2% | -23%&-28% | ? | -2% | ? | -23% | -2%
CC(C)OC(=O)Cn1nc(C(F)(F)F)c2c1CCCC2
  5%[46.1 µM] | nt | nt | 0%[46.1 µM] | 0% | 4% | -5% | 0%
c1ccc(CNc2c3c(nc4ccccc24)CCC3)cc1
  ? | nt | nt | ? | 0% | 4% | ? | ?
Cc1ccc(-c2nc3scc(CCNS(=O)(=O)c4ccc(C)c(C)c4)n3n2)cc1
  -2%[46.1 µM] | -7.0% | -3% | nt | nt | nt | 30%[activator] | nt
CCCCOc1ccc(-c2cc(C(=O)NNC(=S)NCC)c3ccccc3n2)cc1
  ? | -9.2% | -14% | 1.5µM* | -15% | -7% | ? | 63µM*
COc1ccc(N2CCN(c3nc(NC(C)(C)C)nc(N4CCCCC4)n3)CC2)cc1
  ? | 1.5% | -5% | ? | -3% | -138% | ? | -10%
Cc1ccc(S(=O)(=O)NCC(=O)N(CC(=O)NCC2CCCO2)CC2CCCO2)cc1 (stereo not given)
  -2% | nt | nt | 1% | 0% | -2% | -5% | 2%
Cc1cc(C)c(NC(=S)N(CCCN2CCN(C)CC2)Cc2cccs2)c(C)c1
  8% | nt | nt | ? | -2% | nt | 13% | -1%
O=S(=O)(c1cc(Cl)ccc1Cl)N1CCCCC1
  2% | -0.3% | 0% | -15% | -5% | -7% | -14% | -26%
CSc1ncc(-c2ccc(Cl)cc2)[nH]1
  2% | nt | nt | -1%[46.1 µM] | -14% | 2% | 40%[activator] | -21%
O=C(O)C1C2C=CC(C2)C1C(=O)NC1CCS(=O)(=O)C1 (stereo not given)
  18% | 6.7% | 2% | ? | 9% | -5% | 16% | -16%
Cc1cccc(/C=N/N(CCO)C2=NS(=O)(=O)c3ccccc32)c1
  ? | nt | nt | ? | -1% | nt | -5% | 16%
CCOc1nc(NCCN2CCOCC2)nc(NC(C)C)n1
  1% | -2.0% | 0% | ? | 1% | -3% | 12% | -3%
COC(=O)CCCC(=O)N1CCC(CO)(CCc2ccccc2)CC1
  4%[46.1 µM] | nt | nt | ? | nt | 25% | 5% | -25%
COc1ccc(C(=O)Nc2cc3c(cc2Cl)OCCCO3)cc1
  ? | 2.1% | 1% | -10% | -3% | -17% | 26% | 7%
Cc1cc(OCC(=O)c2cccc(C(F)(F)F)c2)n2cnnc2n1
  -1%[46.1 µM] | nt | nt | 9%[46.1 µM] | 0% | 4% | 59%[activator] | 10%
CCC(NC(=O)c1ccccc1NC(=O)c1ccc(C)cc1)C(=O)O (stereo not given)
  12% | 3.8% | -5% | 23% | -1% | -13% | 55%[activator] | -7%
CCOc1ccccc1N(CC(=O)O)S(=O)(=O)c1ccccc1
  16% | 5.6% | -6% | 16% | -4% | 7%[9.22 µM] | -2% | 7%
Nc1cc2c(cc1[N+](=O)[O-])OCCO2
  10% | -5.1% | -12% | ? | -19% | 4% | 15% | -2%
CC(Cc1ccccc1)N(C)C(=O)CN1C(=O)c2ccccc2C1=O (stereo not given)
  16% | nt | nt | 8% | nt | nt | -19% | 28%
O=C(CN1CCOCC1)Nc1c2c(nc3ccccc13)N(Cc1ccccc1)CC2
  -10% | -3.6% | -1% | 18%&18% | -4% | -5% | -8% | -19%
Cn1c(CNC(=O)C(C)(C)C)nc2ccccc21
  22% | 1.3% | -6% | 11% | -2% | 6% | -18% | -15%
CN(C)c1ccc(CNC(=O)CN2C(=O)COc3ccc(S(=O)(=O)N4CCCC4)cc32)cc1
  nt | nt | nt | nt | 0% | -2% | 5% | 11%
CCOc1ccc2oc(=O)cc(CN3CCN(c4ccccc4OC)CC3)c2c1
  15%[46.1 µM] | -4.2% | 14% | 0%[46.1 µM] | nt | nt | -28% | nt
CCOC(=O)N1CCC(NC(=O)C2=C(C)C(=O)OC23CCC(C)CC3)CC1 (stereo not given)
  nt | -1.8% | 20% | nt | 9% | -4% | -18% | 9%
CCN(CC(=O)NCc1cccs1)C(=O)/C=C/c1cccc(OC)c1OC
  14% | nt | nt | -12%[46.1 µM] | 7% | nt | 8% | 20%

Hits appear at their usual frequency, and some 4.8% of all compounds hit somewhere here.
